Rango-impB inh – qHTS Assay for Inhibitors of Rango (Ran-regulated importin-beta cargo) - Importin beta complex formation | AID 540263, 2011 | Potency, µM (series often up to 92.2 µM), for inactives: top-dose inhibition of complex formation | Rango CFP/YFP FRET sensor + importin beta, 45 min | 340,000 tested, 0.031% active; active = rising FRET ratio curve, often small or poorly fitted; inconclusive = mostly compound fluorescence or quenching in the first reads; inactive = flat curves in all reads;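 also: potency is read from the fitted curve at half-maximal effect; 0% = DMSO wells and 100% = buffer wells lacking importin beta; nearly all actives have a fitted effect of over 15% in size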
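FRET biosensor Rango (snurportin 1 IBB between N-terminal EYFP and C-terminal Cerulean), 50 nM in PBS/1 mM DTT/0.02% Tween-20/0.1% BSA, preincubated 5 min RT with compound; 0.125 microM importin beta added, 45 min RT, CFP/YFP FRET ratio read.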
miR-21 reporter – qHTS Assay for Modulators of miRNAs and/orActivators of miR-21. HeLa miR-21 FLuc reporter, luciferase, 48 h. Potency, µM (titrated, usually from 38.3 µM), inactives show at the highest dose reporter change, positive = more light. 340,000 tested, under 10 active. AID 2288, 2010; active = well fitted rising curve with a large enough effect; inconclusive = small, poorly fitted or top-dose-only effect; inactive = no such curve, though single readings can be large or run the other way;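 also: % of control where 0% means no effect; miR-21 action dims this reporter so a rising signal means less miR-21 action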
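Using DMEM plus 10% FBS, HeLa miR-21-FLuc cells are incubated with test compounds (final up to about 40uM) for 48 hours; firefly luciferase signal is then imaged following reagent-mediated lysis.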
GLA inh pH 4.5 – qHTS Assay for Inhibitors of Human alpha-Galactosidase at pH 4.5 | purified enzyme, 4-MU-alpha-Gal fluorescence, pH 4.5 | AID 1467, 2008 | 230,000 tested, under 10 active | activity change, negative = inhibition, % at 105 µM; inconclusive = small, poorly fitted or top-dose-only inhibition, or a rising curve; inactive = flat fitted curve, though single readings scatter; no compound was filed as active;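 also: 0% = full activity with enzyme and -100% = basal without enzyme; dose as in the result columns while the protocol names 77 µM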
Target sequence (P06280 whole entry, looked up): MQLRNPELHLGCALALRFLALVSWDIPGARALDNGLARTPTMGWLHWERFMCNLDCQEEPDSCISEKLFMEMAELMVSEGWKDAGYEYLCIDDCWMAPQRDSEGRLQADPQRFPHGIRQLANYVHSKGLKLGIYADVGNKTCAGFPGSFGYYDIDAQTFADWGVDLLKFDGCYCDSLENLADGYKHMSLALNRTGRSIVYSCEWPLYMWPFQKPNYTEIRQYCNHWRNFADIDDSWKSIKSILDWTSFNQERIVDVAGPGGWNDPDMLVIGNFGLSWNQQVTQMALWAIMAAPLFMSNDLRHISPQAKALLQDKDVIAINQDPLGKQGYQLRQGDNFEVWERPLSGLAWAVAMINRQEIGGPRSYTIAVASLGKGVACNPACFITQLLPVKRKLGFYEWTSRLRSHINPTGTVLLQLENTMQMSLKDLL
Rango release inh – qHTS Assay for Inhibitors of RanGTP induced Rango (Ran-regulated importin-beta cargo) - Importin beta complex dissociation | 340,000 tested, 0.071% active | AID 540253, 2011 | Snurportin-1 (Homo sapiens) + GTP-binding nuclear protein Ran (Homo sapiens) + Importin … | Potency, µM (doses to about 46.1 µM), for inactives: at the top dose activity change, negative = inhibition | Biochemical FRET Rango-importin beta, RanGTP-induced dissociation; active means falling FRET ratio curve, often poorly fitted, with flat reads before Ran was added; inconclusive means other falling curves, or compound fluorescence or quenching; inactive means flat or rising ratio curve;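 also: potency is read from the fitted curve at half-maximal effect; % of control where 0% means no effect; nearly all actives have a fitted effect of over 45% in size; -100% = wells without RanGTP and RCC1; the record marks most hits as doubtful in a second field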
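Two FRET readings bracket the reaction: one 5 min after compound meets Rango–importin beta, another 45 min after RanGTP-RCC1 (0.6 uM Ran, 0.2 uM RCC1, 2 mM GTP) is added. Only the second defines inhibition.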
Starred values were filed as active, the others as inactive; ? = inconclusive; / = no result given; & = joins results of further samples; [ ] = another dose, or the depositor's remark. Only part of the results is shown (hit frequency here may not be typical).

Rango-impB inh	Rango release inh	miR-21 reporter	GLA inh pH 4.5	smiles
-2.6%	10%	2%	3	Cc1ccc(CNC(=O)Cn2c(=O)n(-c3ccccc3)c(=O)c3sccc32)cc1
?	-28%	-16%	/	Oc1ccc(Br)cc1C1Nc2ccccc2S1 (stereo unspecified)
3.8%	19%	-6%	-2	CCC(c1nnnn1CCOC)N1CCN(Cc2ccccc2OC)CC1 (stereo unspecified)
-4.3%	6%	6%	7	Cc1ccc(CNCC(O)(c2ccccc2)c2ccc(F)cc2)cc1 (stereo unspecified)
0.5%	-4%	2%	0	O=CC1=C(N2CCOCC2)/C(=C\c2ccccc2)CC1
0.0%	-10%	5%	1	Cc1cc(N2C(=O)C3C4CC(C(Br)C4Br)C3C2=O)no1 (stereo unspecified)
-0.1%	-6%	-2%	4	Cn1c(SCC(=O)N2CCc3ccccc32)nnc1C1CC1
0.9%	4%	-16%	2	CC1CCc2nc(NCCO)nc(C(F)(F)F)c2C1 (stereo unspecified)
0.2%	8%	-3%	4	O=C(N/N=C/c1cccnc1)/C(=C\c1cccs1)NC(=O)c1ccccc1
-2.9%	-12%	/	/	CCOc1cccc(C2C(C(=O)c3ccc(C)o3)=C(O)C(=O)N2CCCn2ccnc2)c1 (stereo unspecified)
-1.5%	-4%	/	/	CCCN(CC(=O)Nc1ccccc1OC)C(=O)CSc1nc(C)cc(C)n1
1.6%	0%	-8%	4	Cc1ccc(CCNC(=O)C2CCN(S(=O)(=O)c3cccc4nonc34)CC2)cc1
?	-10%	/	/	N#Cc1ccccc1NC(=O)CN1C(=O)NC(Cc2c[nH]c3ccccc23)C1=O (stereo unspecified)
-1.3%	-4%	-1%	/	O=C(Nc1ccc(N2CCOCC2)cc1)c1cc(-n2cnnc2)ccc1Cl
-1.7%	0%	3%	-9	O=C(COc1cccnc1[N+](=O)[O-])c1ccc(Cl)s1
2.7%	-15%	-1%	/	CCOc1ccc(CN2CCN(CCCc3ccccc3)CC2CCO)cc1 (stereo unspecified)
2.9%	-15%	11%	-9	COc1ccc(C(=O)O/N=C(\N)Cc2ccc([N+](=O)[O-])cc2)c(OC)c1
9.7%	0%	/	-7	CC(C)(C)C(=O)OCOC(=O)[C@@H]1N2C(=O)[C@@H](N=CN3CCCCCC3)[C@H]2SC1(C)C
3.0%	-8%	0%	-12	CC1CCN(S(=O)(=O)c2ccc(Cl)cc2Br)CC1
-4.4%	4%	/	/	Cc1ccc(S(=O)(=O)N2CCOCC2)cc1NCC(=O)Nc1ccc(OC(F)(F)F)cc1
0.8%	19%	-2%	9	[O-]/[N+](=C\c1ccc(F)cc1)c1ccccc1
0.8%	5%	1%	-1	CC1=C(C(=O)OCC2CCCO2)C(c2ccccc2)NC(=O)N1 (stereo unspecified)
-1.2%	-1%	-8%	/	O=C(CNC(=O)c1cccnc1)N/N=C/c1ccc(O)cc1O
-1.1%	2%	2%	/	CN1CCCC(OC(=O)c2ccc(S(=O)(=O)N(C)C)cc2)C1 (stereo unspecified)
1.3%	-12%	-27%	0	Cc1ccc(C(=O)Nc2ncc(C)s2)o1
2.8%	-4%	3%	-6	O=C(CSCc1ccccc1)Nc1ccc2c(c1)C(=O)NC2=O
0.4%	-8%	-6%&-14%	/	CCCn1c2ccccc2c2cnn(CC(=O)NCCN(CC)CC)c(=O)c21
-1.1%	1%	?	/	CN1CCN(c2ccc(C(F)(F)F)cc2NC(=O)Nc2ccccc2)CC1
0.4%	-18%	-2%	-10	CC1(C)OC(=O)C(=Cc2ccc[nH]2)C(=O)O1
10%	-5%	2%	-9	CCCCSc1cnn(-c2ccccc2)c(=O)c1SCCCC
-1.0%	9%	?	-2	O=C(NC1CCCCC1)C(c1cccnc1)N(C(=O)CCl)c1ccccc1Cl (stereo unspecified)
9.9%	-9%	/	/	O=C1CCC[C@@H]2C[C@@]3(C[C@@H]4CCN1[C@H]24)Nc1cc([N+](=O)[O-])ccc1NC3=NC1CCCCC1
?	-22%	-7%	-1	O=C(NCc1nnc(SCC(=O)N2CCC(Cc3ccccc3)CC2)o1)c1ccco1
3.4%	5%	-7%	6	CCOC(=O)c1sc(NC(=O)CSc2n[nH]c(CC)n2)nc1C
-2.9%	-1%	-96%	2	O/N=C(/CCc1ccccc1)c1ccc2c(c1)OCCO2
-2.4%	-23%	/	/	Cc1ccc([C@H]2C(C(=O)O)=CC[C@@H](c3ccc(C(C)C)cc3)N2S(=O)(=O)c2ccc(C)cc2)cc1
6.7%	-2%	-2%	-5	CN(C)c1nc(N/N=C/c2c[nH]c3ccccc23)nc(N2CCOCC2)n1
0.8%	3%	-6%	7	Cc1cc(N2CCN(C(c3ccccc3)c3ccccc3)CC2)n2ncnc2n1
-7.9%	2%	-60%	8	COCn1c(COc2ccccc2)nc2ccccc21
6.5%	-13%	-3%	7	COc1cccc(C(C(=O)NC(C)(C)C)N(CCC(C)C)C(=O)CCC(=O)Nc2cc(C)on2)c1OC (stereo unspecified)
?	-10%	-8%	-9	Cc1c(C(=O)Nc2cccc(Cl)c2)c2ccccn2c1CCc1ccncc1
-2.8%	-5%	-1%	-6	O=C(N/N=C/c1c[nH]c2ccccc12)c1cc(-c2ccccc2)n[nH]1
1.2%	-12%	/	/	C[C@@]12C(=O)Nc3ccc(Br)cc3C(=O)N1[C@H]1c3cc(Cl)ccc3OC[C@@H]1[C@@H]2c1ccccc1
-4.8%	-9%	-9%	-2	CCCCNc1nc(-c2ccccc2)cc(C(F)(F)F)c1C(N)=O
3.2%	-16%	-4%	-12	CCOc1cccc(/C(O)=C2/C(=O)C(=O)N(CCOC)C2c2ccco2)c1 (stereo unspecified)
0.0%	1%	-3%	-1	O=C(NCC1CCCO1)c1cccc(NC(=O)c2ccco2)c1 (stereo unspecified)
-0.3%	-2%	0%	-20	CCN(CC)S(=O)(=O)c1cc(NC(=O)COC(=O)CCC(=O)c2cccs2)ccc1C
1.6%	-21%	/	/	Cc1cccc(NC(=O)c2cccc(NC(=O)c3ccco3)c2)c1

Given with two lines to a compound: part of the list above
Results follow in this order: Rango-impB inh, Rango release inh, miR-21 reporter, GLA inh pH 4.5
CC1=C(C(=O)OCC2CCCO2)C(c2ccccc2)NC(=O)N1 (stereo unspecified)
 : 0.8%, 5%, 1%, -1
O=C(CNC(=O)c1cccnc1)N/N=C/c1ccc(O)cc1O
 : -1.2%, -1%, -8%, /
CN1CCCC(OC(=O)c2ccc(S(=O)(=O)N(C)C)cc2)C1 (stereo unspecified)
 : -1.1%, 2%, 2%, /
Cc1ccc(C(=O)Nc2ncc(C)s2)o1
 : 1.3%, -12%, -27%, 0

Additional compounds:
Rango-impB inh	Rango release inh	miR-21 reporter	GLA inh pH 4.5	smiles
0.6%	-3%	/	/	C[C@]12CC[C@H](O)CC1=CCC1C2CC[C@@]2(C)C1CC[C@@H]2NC(=O)[C@@H](N)Cc1cnc[nH]1 (stereo partly specified)
?	?	10%	-22	Cc1cc(C)c2nc3sc(C(=O)N4CCOCC4)c(N)c3cc2c1
-0.1%	-4%	-3%	/	CC(=O)N/C(=N/c1nc(C)cc(C)n1)Nc1ccc(F)cc1F
1.2%	11%	-6%	5	Cc1noc(C)c1COc1ccc(C(=O)NCCc2ccccn2)cc1
-3.0%	-5%	-8%	6	Nn1c(=O)c2ccccc2n2c(SCc3ccccc3)nnc12
4.7%	23%	-2%	2[21.1 µM]	CNC(=O)CSc1nnc(C2CC2)n1-c1ccccc1
5.7%	6%	-11%	-16	O=C(OCc1nnc(-c2ccccc2)o1)c1cc(S(=O)(=O)N2CCOCC2)c(Cl)cc1Cl
0.2%	2%	-1%	-7	O=c1cc(CNCCCO)c2ccccc2[nH]1
-0.5%	-3%	1%	2	O=C(Nc1ccccc1)NC1CCN(Cc2ccccc2)CC1
-4.0%	12%	-1%	14	COC(=O)C1C(c2ccccc2)NC(=O)NC1(O)C(F)(F)Cl (stereo unspecified)
0.1%	-1%	0%	2	CCCn1c(CN2CCN(C)CC2)nc2ccccc21
0.7%	0%	-48%	/	COc1cccc(NC(=O)c2ccc3c(c2)CCCC3)c1
-3.4%	2%	-2%	-4	COC(=O)CN(c1cc(C(F)(F)F)ccc1Cl)S(C)(=O)=O
5.4%	-17%	-12%	1	COc1ccc(-c2nnc(NC(=O)C3=COCCO3)o2)cc1
-1.1%	1%	2%	-8	O=P(O)(O)COc1ccccc1P(=O)(c1ccccc1)c1ccccc1
1.4%	26%	-4%	-2	CCSc1nnc(NC(=O)Cc2cccc(OC)c2)s1
2.0%	-13%	/	/	C=CCN1C(=O)c2ccc(C(=O)N3CCN(S(=O)(=O)c4cccc(F)c4)CC3)cc2C1=O
-3.6%	18%	-6%	1	O=C(N1CCCC1)C12CC3CCC(CC(C3)C1)C2
?	?	-5%	/	C#CCOc1ccc(C2C(C#N)=C(N)Oc3cc(O)ccc32)cc1 (stereo unspecified)
-1.2%	2%	6%	-1	COC(=O)Cc1ccc(NC(=S)N2CCN(c3cc(Cl)ccc3C)CC2)cc1
-2.4%	5%	24%	5	COc1ccc(CNC(=O)c2ccc(Cn3nc(C)c([N+](=O)[O-])c3C)o2)cc1
-0.2%	-6%	28%	/	COc1ccc(CNc2ncnc3ccccc23)cc1
-1.7%	-3%	1%	/	COc1cccc(NS(=O)(=O)c2c(C(=O)N3CCCCCC3)c(C)n(C)c2C)c1
-3.4%	16%	0%	11	CC(C)(C)NC(=O)COC(=O)CCC(=O)c1ccc(F)cc1
2.4%	15%	-9%	1	COc1ccc(OC)c(C(=O)COC(=O)c2c(OC)cccc2OC)c1
-0.9%	15%	-7%	-4	COc1cccc(OCC(O)CN(CCO)Cc2ccccc2)c1 (stereo unspecified)
?	-20%	/	18	O=C1OCCN1C(=O)[C@H]1[C@H](c2ccc(F)cc2)C(c2ccccc2)=NN1c1ccc(Br)cc1
2.6%	3%	-1%	9	O=C(Cn1nnc2ccccc2c1=O)N1CCCc2ccccc21
-0.3%	-8%	-24%	12	CC(=O)Nc1ccc(Nc2ncnc3c2cnn3-c2cccc(C)c2)cc1
/	/	4%	-18&-9	COC(=O)[C@@]1(Cc2ccc(F)cc2)[C@H]2c3cc(C(=O)N4CCCC4)n(CCc4ccc(O)c(O)c4)c3C[C@H]2CN1C(=O)c1ccccc1
-1.1%	-13%	-2%	-8	COc1ccc(NC(=S)N2CCN(Cc3ccc(C)cc3)CC2)cc1
-1.6%	-6%	7%	-1	CC(C(=O)Nc1cccc(Br)c1)c1ccc([N+](=O)[O-])cc1 (stereo unspecified)
-0.7%	1%	-3%	0	CCOC(=O)CNC(=O)CSc1ncnc2c1cnn2-c1ccc(OC)cc1
?	?	-62%	7	COc1ccccc1/C=C/C1=NC(=C\N(C)C)/C(=O)O1
2.5%	7%	-9%	-8	CCCS(=O)(=O)N1CCN=C1SCc1cccc2ccccc12
4.1%	3%	-9%	7	Cc1nnc2ccc(-c3ccc(NC(=O)c4ccco4)cc3)nn12
3.9%	2%	-12%	-1	CC(C)c1csc(CN2CCC(CO)(Cc3ccccc3)CC2)n1
/	/	2%	-1	Cc1oc(-c2ccc(Cl)cc2)cc1-c1nn2c(-c3ccco3)nnc2s1
2.0%	15%	23%	/	Cc1ccc(Cn2cc(C(=O)NN)c(=O)c3ccc(F)cc32)cc1
-3.8%	-9%	-13%	/	Cc1ccccc1C(=O)Nc1ccc2c(c1)nc(CCNC(=O)c1ccco1)n2C
1.8%	0%	-11%	-3	Nc1nc(NC(=O)/C=C/c2ccccc2)nn1-c1ccccc1
-3.4%	-9%	/	/	COc1cc(C(C)=O)ccc1O
3.1%	1%	-5%	-4	COC(=O)c1[nH]c2cccc(OC)c2c1NC(=O)CCN1CC(C)CC(C)C1 (stereo unspecified)
0.5%	0%	-2%	-7	NS(=O)(=O)c1ccc(-n2nc(C(=O)O)cc2-c2ccc(Cl)cc2)cc1
